HKDC1 inhibitor – HKDC1 (human) hexokinase inhibition; recombinant HKDC1, G6PDH/diaphorase resazurin coupled fluorescence; Q2TB90; inhibition, % at 20 µM; AID 493160; 340,000 compounds, 0.16% hits;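 active = inhibition above about 35% when tested at 20 µM, limit read from the data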;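 note: plate controls were DMSO wells with enzyme for no effect and DMSO wells lacking enzyme for full effect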
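Assay system – recombinant HKDC1 (HK5) hexokinase enzyme, produced in-house · Input – HKDC1 at 5 µg/mL · Reagent – glucose plus 1 mM ATP as hexokinase substrates · Timing – 90 min reaction incubation at room temperature, dark · Measured by – G6PDH/diaphorase-coupled fluorescence, 1 mM NADP, 100 µM resazurin, 525/613 nm · Benchmarks – DMSO-enzyme wells negative, buffer-substituted wells positive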
PfG6PD inh – PfG6PD (Plasmodium falciparum) enzyme inhibition; inhibition, % at 20 µM; PfGluPho enzyme, NADPH resazurin-diaphorase fluorescence; AID 504690; 350,000 compounds, 0.78% hits;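 active = inhibition reaching at least a set limit at 20 µM in the primary screen, cut at about 59% in these data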;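 note: 0% = DMSO wells with substrate and 100% = DMSO wells lacking glucose-6-phosphate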
SENP7 block – SENP7 protease inhibition; Q9BQF6; recombinant SENP7, Z-RLRGG-aminoluciferin luminescence, 40 min; inhibition, % at 5 µM; 330,000 compounds, 1.5% hits;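 active = inhibition above about 50% at the single test dose, limit read from the data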;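 note: plate controls were DMSO with enzyme for no effect and no enzyme buffer wells for full effect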
Target sequence (Q9BQF6 706-1050 limits assumed): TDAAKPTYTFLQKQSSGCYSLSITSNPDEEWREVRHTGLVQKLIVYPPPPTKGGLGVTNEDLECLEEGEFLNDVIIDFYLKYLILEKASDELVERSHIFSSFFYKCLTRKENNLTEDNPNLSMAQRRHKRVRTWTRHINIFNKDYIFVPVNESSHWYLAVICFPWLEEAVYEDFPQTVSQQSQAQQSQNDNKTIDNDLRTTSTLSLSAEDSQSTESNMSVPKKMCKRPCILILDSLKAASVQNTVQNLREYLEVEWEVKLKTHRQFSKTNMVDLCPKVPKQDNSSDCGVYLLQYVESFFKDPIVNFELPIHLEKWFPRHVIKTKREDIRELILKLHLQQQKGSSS
SENP1 FRET inh – inhibitors of human SENP1 SUMO protease catalytic domain. inhibition, % at 10 µM. Q9P0U3. 360,000 compounds, 0.21% hits. recombinant SENP1 catalytic domain, CyPet-SUMO1-YPet FRET cleavage;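 active = inhibition at least 30% at 10 µM, raw YFP signal under a set limit, fluorescence ratio 0.5 to 1.5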;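 note: 0% = enzyme with DMSO and 100% = no enzyme wells; some results filed as inactive read as strong as hits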
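Material – human SENP1 catalytic domain · Input – SENP1 enzyme, 20 pM final · Compound dosing – single concentration of 10 µM compound, 0.5% DMSO final · Timing – enzyme reaction for 50 min at room temperature, dark · Measured by – FRET fluorescence in CFP and YFP emission channels · Control set – no-enzyme wells low, DMSO-plus-enzyme wells high control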
SENP6 block – inhibitors of human SENP6 protease. Q9GZR1. inhibition, % at 10 µM. 330,000 compounds, 1.8% hits. Recombinant SENP6 catalytic domain, aminoluciferin luminescence;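 active = inhibition above about 50% at the single tested dose, limit read from the data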;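 note: plate controls were DMSO wells with enzyme for no effect and DMSO wells lacking enzyme for full effect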
Target sequence (Q9GZR1 628-1112 limits assumed): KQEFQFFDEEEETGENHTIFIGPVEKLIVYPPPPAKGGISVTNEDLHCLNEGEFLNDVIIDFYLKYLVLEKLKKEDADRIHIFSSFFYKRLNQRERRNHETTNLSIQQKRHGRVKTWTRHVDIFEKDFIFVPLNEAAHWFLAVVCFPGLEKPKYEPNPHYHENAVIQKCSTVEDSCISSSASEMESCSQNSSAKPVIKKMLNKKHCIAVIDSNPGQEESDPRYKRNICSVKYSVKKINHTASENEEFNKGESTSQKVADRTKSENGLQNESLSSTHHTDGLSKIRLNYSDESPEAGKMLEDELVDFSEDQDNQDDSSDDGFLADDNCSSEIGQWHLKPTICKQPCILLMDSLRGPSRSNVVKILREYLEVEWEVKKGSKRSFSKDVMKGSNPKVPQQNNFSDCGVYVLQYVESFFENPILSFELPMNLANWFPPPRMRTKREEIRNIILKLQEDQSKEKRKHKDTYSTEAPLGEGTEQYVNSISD
SENP8 block-1 – inhibitors of human SENP8 protease. recombinant SENP8, Nedd8 substrate fluorescence. Q96LD8. inhibition, % at 20 µM. AID 602440. 360,000 compounds, 0.64% hits; in the data active = inhibition mostly above about 40%, no sharp cut-off; inactive = mostly below about 27%
SENP8 block-2 – inhibitors of human SENP8 protease | purified SENP8, Z-RLRGG-aminoluciferin cleavage, luminescence | AID 2540 | 330,000 compounds, 1.2% hits | inhibition, % at 10 µM | Q96LD8; in the data active = inhibition above about 50%
NLRP3 yeast inh – inhibitors of NALP3 inflammasome in yeast; Yeast reconstituted NLRP3/ASC/caspase-1, beta-gal luminescence, 24 h; inhibition, % at 10 µM; 330,000 compounds, 0.39% hits; AID 2825;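 active = inhibition of 50% or more; inactive = inhibition below 50%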;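 note: plate controls were induced DMSO wells for no effect and uninduced yeast grown without galactose for full effect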
Numbers without * were called inactive; i = inactive; nt = not tested or not shown; & = joins results of further samples. These rows are one share of the data, so the mix of outcomes need not match the whole.

nr	Structure	HKDC1 inhibitor	PfG6PD inh	SENP7 block	SENP1 FRET inh
1	Cc1cc2c3nonc3ccc2n1-c1ccccc1	0	28	7	-27
2	CCOC(=O)c1sc(NC(=O)c2ccc3ncsc3c2)nc1C	0	12	59*	-157
3	CCN(CC)C(=S)SSC(=S)N(CC)CC	-19	66*	4	-4
4	COc1ccc2nc(N3CCC(O)CC3)c(C#N)cc2c1	9	29	4	-24
5	c1csc(-c2nc3nc4ccccc4nc3n2Cc2ccc3c(c2)OCO3)c1	9	72*	1	-25
6	CC1=CC(c2ccccc2)n2nc(NS(=O)(=O)c3ccc(C)cc3)nc2N1 (stereo unspecified)	-9	-11	-11	-127
7	CCOC(=O)c1cc2c(=O)n3ccccc3nc2n(CCOC)c1=NC(=O)C(C)(C)C	-1	13	-3	-30
8	O=C1CCCC2=C1C(c1ccco1)Nc1ccc3ccccc3c12 (stereo unspecified)	23	32	6	-13
9	CCN(CC)c1ccc(C2C(C(=O)OCCOC)=C(C)NC3=C2C(=O)CC(C)(C)C3)cc1 (stereo unspecified)	-1	26	-9	-10
10	CCN1C(=O)c2cccc3c(S(=O)(=O)NCCCN4CCOCC4)ccc1c23	-1	-9	6	-21
11	COc1cc2ccc(=O)oc2c(O)c1OCC=C(C)C	8	-12	0	-32
12	Cc1cc(N=Cc2c(O)n(-c3ccc4c(c3)OCO4)c(=O)c3ccccc23)ccn1	8	10	0	-33
13	c1ccc(C(c2nnnn2C2CCCCC2)N2CCc3ccccc3C2)nc1 (stereo unspecified)	4	9	30	-14
14	COCCCn1c(=N)c(C(=O)NCC2CCCO2)cc2c(=O)n3ccccc3nc21 (stereo unspecified)	-7	-2	3	-21
15	N#Cc1c2c(c(NCCN3CCOCC3)n3c1nc1ccccc13)CCCC2	6	-2	0	-21

nr	SENP6 block	SENP8 block-1	SENP8 block-2	NLRP3 yeast inh
1	10	-296	3	-22
2	2	-126	11	24
3	0	-6	9	31
4	25	i	6	11
5	6	i	-25	24
6	-4	-289	1	-2
7	-1	-322	-3	-11
8	-14	-482	2	9
9	-2	-119	2	16
10	6	-328	14	-4
11	2	-57	-1	2
12	6	-65	-1	19
13	45	-273	20	6
14	-7	i	-14	10
15	5	-281	-2	-19

An excerpt of these results, with tabs.
nr	canonical_smiles	HKDC1 inhibitor	PfG6PD inh	SENP7 block	SENP1 FRET inh	SENP6 block	SENP8 block-1	SENP8 block-2	NLRP3 yeast inh
15	N#Cc1c2c(c(NCCN3CCOCC3)n3c1nc1ccccc13)CCCC2	6	-2	0	-21	5	-281	-2	-19
1	Cc1cc2c3nonc3ccc2n1-c1ccccc1	0	28	7	-27	10	-296	3	-22

Random excerpt: 7 records from the list, in no set order.
nr	Structure	HKDC1 inhibitor	PfG6PD inh	SENP7 block	SENP1 FRET inh
7	CCOC(=O)c1cc2c(=O)n3ccccc3nc2n(CCOC)c1=NC(=O)C(C)(C)C	-1	13	-3	-30
2	CCOC(=O)c1sc(NC(=O)c2ccc3ncsc3c2)nc1C	0	12	59*	-157
6	CC1=CC(c2ccccc2)n2nc(NS(=O)(=O)c3ccc(C)cc3)nc2N1 (stereo unspecified)	-9	-11	-11	-127
13	c1ccc(C(c2nnnn2C2CCCCC2)N2CCc3ccccc3C2)nc1 (stereo unspecified)	4	9	30	-14
1	Cc1cc2c3nonc3ccc2n1-c1ccccc1	0	28	7	-27
11	COc1cc2ccc(=O)oc2c(O)c1OCC=C(C)C	8	-12	0	-32
9	CCN(CC)c1ccc(C2C(C(=O)OCCOC)=C(C)NC3=C2C(=O)CC(C)(C)C3)cc1 (stereo unspecified)	-1	26	-9	-10

nr	SENP6 block	SENP8 block-1	SENP8 block-2	NLRP3 yeast inh
7	-1	-322	-3	-11
2	2	-126	11	24
6	-4	-289	1	-2
13	45	-273	20	6
1	10	-296	3	-22
11	2	-57	-1	2
9	-2	-119	2	16

(next part)
nr	Structure	HKDC1 inhibitor	PfG6PD inh	SENP7 block	SENP1 FRET inh
16	N=c1c(C(=O)NC2CCCC2)cc2c(=O)n3ccccc3nc2n1CCN1CCOCC1	4	-9	0	-22
17	O=C(CN1C(=O)c2cccc3cccc1c23)NCc1ccc2c(c1)OCO2	-6	12	4	-20
18	Cc1cc(C)c2nc(N3CCCC3)c(C#N)cc2c1	6	11	-9	-19
19	Cc1ccc2[nH]c3c(c2c1)CN(C(=O)CN1CCN(c2cccc(C)c2C)CC1)CC3	6	20	7	-18
20	COc1ccc2nc(SCC(=O)Nc3ccc(S(=O)(=O)N4CCCC4)cc3)c(C#N)cc2c1	17	-10	6	-67
21	COCC(=O)Nc1nc2n(n1)C(c1ccccc1)CC(c1ccc(OC)cc1)N2 (stereo unspecified)	0	13	0	-24
22	CCOC(=O)CSc1nc2ccc(N3CCOCC3)cc2c(=O)n1Cc1ccc2c(c1)OCO2	nt	nt	0	nt
23	Cc1cc(C)c2cc(C#N)c(N3CCCC3)nc2c1	9	9	-2	-70
24	COC(=O)CCC(=O)OC1(C)C(=O)C=C2C=C(C3CC3)N(CCCOC(C)C)C=C2C1=O (stereo unspecified)	20	68*	15	-53
25	O=C1CC2(CCCCC2)Oc2ccc(OCC(=O)N3CCOCC3)cc21	-12	8	-6	-18
26	O=C(CN1C(=O)c2cccc3cccc1c23)N1CCN(c2ccccc2)CC1	-2	-6	-7	-15
27	COCCN1C=C(C(=O)OC)C(c2cc3c(cc2Br)OCO3)C(C(=O)OC)=C1	-6	18	-2	nt
28	CN1CCc2c(sc3c2C(=O)NC(c2cccs2)N3)C1 (stereo unspecified)	-2	14	6	-30
29	CC(=O)Oc1cc2oc(=O)cc(C)c2cc1OC(C)=O	0	-20	-3	-26
30	Cc1cc(-c2ccco2)c(C#N)c2nc3ccccc3n12	5	9	1	-16

nr	SENP6 block	SENP8 block-1	SENP8 block-2	NLRP3 yeast inh
16	-6	-493	2	-1
17	1	-193	3	19
18	-3	-317	-5	-5
19	12	-99	8	10
20	4	-77	2	10
21	-8	-278	-5	13
22	8	nt	1	0
23	-25	i	4	15
24	47	-37	17	25
25	14	-274	10	8
26	-9	-83	-17	15
27	-4	nt	0	11
28	33	-286	10	13
29	-4	-296	-4	6
30	-6	-417	-5	5

(continued)
nr	Structure	HKDC1 inhibitor	PfG6PD inh	SENP7 block	SENP1 FRET inh
31	Cc1ccc2cc(C#N)c(NCCNC(=O)C3CCC3)nc2c1C	1	-22	6	-121
32	CCC(C)(C)n1nnnc1C(c1cc2cc3c(cc2[nH]c1=O)OCO3)N1CCN(C)CC1 (stereo unspecified)	-12	0	-5	-82
33	COCCCn1c(=N)c(C(=O)NCC2CCCO2)cc2c(=O)n3cccc(C)c3nc21 (stereo unspecified)	-15	-3	0	-29
34	COc1cccc(C2=CC(c3cccc(OC)c3OC)n3nnnc3N2)c1 (stereo unspecified)	-7	-20	4	-6
35	Cc1ccccc1N1C(=O)c2cccc3c(N(C)CCO)ccc(c23)C1=O	3	-20	-6	-23
36	COc1ccc(-c2cc(-c3ccccc3)nc(N3CCCC3)n2)cc1OC	6	29	7	-18
37	O=C(Nc1ccc(N2CCN(C(=O)c3ccco3)CC2)cc1)c1ccccc1F	1	-13	-7	4
38	CCNc1cc2oc(=O)c(CN3CCOCC3)c(C)c2cc1C	-3	-11	6	9
39	COc1ccc(N2CCN(c3cc(C)c4ccc(O)cc4n3)CC2)cc1	-3	-7	12	-35
40	CCc1cc2c(CN3CCN(CCO)CC3)cc(=O)oc2cc1O	2	-10	6	-27
41	CCOC(=O)c1c(NC(=O)c2cccs2)sc2c1CCC2	-8	9	-12	-67
42	Cn1c(C(=O)NCC2CCCO2)cc2c(=O)n3ccccc3nc21 (stereo unspecified)	7	19	3	-118
43	O=C(NCC1CCCO1)c1coc2nc3ccccc3nc12 (stereo unspecified)	-3	11	8	-55
44	COC(=O)CSc1nc2cc(C)cc(C)c2cc1C#N	-2	-2	6	21
45	Cc1cc(N2CCCC2)ccc1/C=N/n1cnnc1	9	12	-8	-60

nr	SENP6 block	SENP8 block-1	SENP8 block-2	NLRP3 yeast inh
31	22	-274	4	14
32	7	-295	6	-15
33	3	-416	-4	17
34	5	-23	2	8
35	-40	-230	-3	27
36	4	-290	-1	7
37	17	22	-10	12
38	-6	-470	-3	3
39	-7	-82	-12	30
40	-11	-252	-4	6
41	-19	-255	-11	7
42	4	-251	-5	10
43	7	-495	10	27
44	-7	-54	-6	17
45	-11	-331	2	19

The listing continues.
nr	Structure	HKDC1 inhibitor	PfG6PD inh	SENP7 block	SENP1 FRET inh
46	COc1ccc(N=c2oc3cc(O)ccc3cc2C(=O)NCC2CCCO2)cc1 (stereo unspecified)	-8	-15	-8	-31
47	CCCC(=O)C1=C(c2ccccc2)C(C#N)(C#N)C(C#N)=C1N	8	14	0	-40
48	O=C(O)Cn1c(O)c(C=Nc2ccccc2)sc1=S	1&3	25&13	5&2	-45&-56
49	O=C(c1cccn2c(=O)c3ccccc3nc12)N1CCN(Cc2ccc3c(c2)OCO3)CC1	-7	-3	4	-50
50	COCCNc1cc(C)nc2c3c(C)cc(C)nc3nn12	5	2	2	-108
51	COc1ccc2nc3sc(C(=O)NCc4cccs4)c(N)c3cc2c1	nt	nt	5	nt
52	COc1ccc(C(=O)Nc2cccc3c2C(=O)NC3=O)cc1S(=O)(=O)N1CCOCC1	-3	2	1	-23
53	CNc1oc(-c2cccc3ccccc23)nc1C#N	6	10	8	-22
54	CN1CC=C2C(C#N)=C(N)C(C#N)(C#N)C(c3cccc(Cl)c3Cl)C2C1 (stereo unspecified)	0	-2	-10	-17
55	CC(=O)N(Cc1ccccc1)c1ncc2c(n1)c(=O)c(C#N)c1ccccn12	-1	4	-2	-23
56	COC(=O)C1=COC(C)C2CN3CCc4c([nH]c5ccccc45)C3CC12 (stereo unspecified)	4	1	11	-18
57	CC1CCCN(c2oc(-c3cccc4ccccc34)nc2C#N)C1 (stereo unspecified)	-8	-2	-10	-38
58	COc1ccc(CN2CCN(c3cc(C)nc4c5c(C)cc(C)nc5nn34)CC2)cc1F	1	3	8	-125

nr	SENP6 block	SENP8 block-1	SENP8 block-2	NLRP3 yeast inh
46	-3	-310	2	13
47	27	-186	4	6
48	-19&2	2&4	-7&-8	24&13
49	7	-322	1	12
50	6	-270	0	17
51	14	nt	7	9
52	-4	-303	1	5
53	1	-460	-4	13
54	2	-463	-7	7
55	7	-177	-2	10
56	18	-125	-2	15
57	-26	-276	-6	-13
58	11	-263	6	11
